NPYLR7 ag: mosquito NPYLR7 agonism; activation, % at 10 µM; HEK293T NPYLR7/Galpha15, GCaMP6s calcium fluorescence; actives 0.15% (n = 270,000); in the data active = activation above about 40%;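 also: 0% = vehicle and 100% = reference agonist at the receptor; some compounds past the cut are filed as inactive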
NPYLR7 ag max-min: second read-out of NPYLR7 ag, no call of its own (marks repeat the call); activation, %; measured here: Max-Min RFU normalised activation; some inactives read as strong as hits;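 span of the calcium signal over five minutes; 0% = vehicle and 100% = native peptide agonist; compound fluorescence can raise it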
Active calls of the source: *; & = joins results of further samples.

SMILES	NPYLR7 ag	NPYLR7 ag max-min
CCCc1nc(C(=O)NC2CCC(n3cnnc3)CC2)cs1 (stereo not drawn)	7.3	4.1
O=C(Nc1ccc(-c2nc3ccccc3o2)cc1)c1cc([N+](=O)[O-])ccc1Br	-6.5	-5.2
O=S(=O)(Cc1ccccc1)NCc1ccccn1	-3.8	-0.6
Cc1nc(C)c(C(=O)NCCc2ccc(Cl)cc2)s1	-0.7	-1.3
COc1ccc(NC(=O)C(C)(C)CC(=O)c2ccc(SC)cc2)cn1	13.8	9.7
Cc1noc(C)c1C(=O)N1CCN(c2ncccc2C(=O)NCC2CCCO2)CC1 (stereo not drawn)	6.3	0.9
COc1ccc(NC(=O)c2c(OC)cccc2OCc2ccccc2)cc1	6.0	3.3
CCN(CC)CCSc1ccc(-c2cccnc2)nn1	0.8	0.5
Cc1ccc(N2CC(C(=O)N(C)C(C3CC3)C3CC3)CC2=O)c(F)c1 (stereo not drawn)	5.1	-0.1
COCCNc1nc(Nc2ccc(C)c(C)c2)c2nccnc2n1	1.9	6.9
CC1CCc2c(sc3ncnc(N4CCCN(Cc5ccc(C#N)cc5)CC4)c23)C1 (stereo not drawn)	-0.2	1.0
CC(C)N(CC(=O)N(Cc1cccn1Cc1ccc(Br)cc1)C1CCCCC1)C(=O)c1ccccc1F	-6.8	-6.7
CCOCc1ccc(C(=O)Nc2ccc(C)cc2Br)o1	-26.5	-26.1
COc1ccc(C)c2sc(N(Cc3cccnc3)C(=O)/C=C/c3ccccc3)nc12	-8.6	-6.6
COc1cccc(NC(=O)C(C)OC(=O)c2ccc(OC)cc2F)c1 (stereo not drawn)	-4.7	-6.3
CCn1ccc(C(=O)N(Cc2ccccn2)c2nc3ccc(OC)cc3s2)n1	-2.5	-5.3
O=c1c(S(=O)(=O)c2ccccc2)cn(Cc2ccc(F)cc2)c2cc(N3CCOCC3)c(F)cc12	8.2	7.8
COc1ccc(/C=C2\SC(=S)N(CCCC(=O)NNC(=O)c3ccccc3O)C2=O)cc1	5.9	-6.9
COc1ccc(NC(=O)CN(C)c2ccc3nnc(C(F)(F)F)n3n2)cc1	21.1	20.3
CCCN(CC(=O)N(CCc1c[nH]c2ccccc12)Cc1ccc(Cl)c(Cl)c1)C(=O)c1ccc([N+](=O)[O-])cc1	-14.0	-9.6
Cc1csc(C2C(=O)NC(=S)C(C#N)C23CCCC3)n1 (stereo not drawn)	1.2	-4.2
CC(=O)Nc1nnc(-c2cc3ccccc3o2)o1	7.7	2.5
CCN1CCN(CC(=O)NC(C)(CC)c2ccccc2)C(=O)C1=O (stereo not drawn)	2.3	1.3
CNC(C)(C)C(=O)NCCC1CN(C)CCO1 (stereo not drawn)	3.2	2.5
Cc1cccc(-c2cn[nH]c2C2CCN(C(=O)c3ncc[nH]3)CC2)c1	7.6	5.7
CCOc1ccc(C(=O)NCC(=O)OCC#N)cc1	-2.2	-2.0
COc1cccc(C)c1NC(=O)c1cccc(CN2CC=CC2)c1	14.1	1.5
C=CCNC(=O)c1ccccc1N1CCC(NC(=O)c2cccc(Br)c2)CC1	-1.8	5.2
Cc1cc(NCC(C)(C)N2CCCCC2)c2ccccc2n1	-0.5	-2.2
Cn1c(=O)c2c(ncn2CC(=O)Nc2sccc2C(N)=O)n(C)c1=O	12.0	9.4
CCn1c(CC2CCN(c3nc(OC)cc(OC)n3)CC2)nn(C)c1=O	9.2	5.3
CCOC(=O)N1CCC(N2CCCC(CCc3ccccc3)(C(=O)OCC)C2)CC1 (stereo not drawn)	13.1	-0.6
CCOC(=O)C1=C(C)NC(C)=C(C(=O)OCC)C1c1ccc(C)o1	9.3	8.5
O=C(CC12CC3CC(CC(C3)C1)C2)OCC(=O)c1ccc(Cl)s1	-6.0	-7.6
COCC(C)Nc1nc(-c2ccc(C)cc2)c(C)s1 (stereo not drawn)	5.6	5.2
CN(Cc1nccn1Cc1ccccc1)c1ncnc2[nH]ccc12	0.8	-2.8
O=C(N1CC[C@H](CO)[C@@H](O)C1)C1(S(=O)(=O)c2ccccc2)CC1	-3.1	-3.5
COCCN(CC(=O)Nc1cc(C(C)(C)C)nn1-c1ccccc1Cl)C(=O)Nc1ccc(C)cc1C	23.5	25.2
NCCOc1ccc(Cl)cc1Cc1ccccc1	3.1	-0.5
CCCCc1nc(N2CCN(C(=O)c3ccccc3F)CC2)c2c3c(sc2n1)CCCC3	15.0	18.7
Cc1ccccc1C(NC(=O)C1CCN(CCOc2ccc(F)cc2)CC1)c1ccsc1 (stereo not drawn)	5.1	-5.7
Cc1nn(C2CCS(=O)(=O)C2)c(C)c1/C=C/c1nc2ccccc2o1 (stereo not drawn)	10.8	1.7
CC1CCCCC1NC(=O)NC(=O)COC(=O)C12CC3CC(CC(Cl)(C3)C1)C2 (stereo not drawn)	0.2	8.9
COc1ccc(CNC(=O)c2c(C)oc3c2cc(OC(C)=O)c2ccccc23)cc1	-4.0	-6.8
OCC(O)Cn1cnc(-c2ccccc2)c1-c1cc2ccccc2[nH]1 (stereo not drawn)	0.1	-1.8
CCOC(=O)c1ccc(-c2ccc(C=C(C#N)C(=O)Nc3sc4c(c3C(N)=O)CCCC4)o2)cc1	-1.0	-5.8
Cc1cnc(C)c(N2CCN(C(=O)[C@H](N)c3ccccc3)CC2)n1	-1.3	-4.3
CN1CCCCC1(C)C(=O)NCc1cc(Cl)ccc1F (stereo not drawn)	3.0	0.5
CCOC(=O)c1ccc2c(c1)nc(SCc1ccc(Br)cc1F)n2CCc1ccc(OC)cc1	-5.3	-8.3
CCC(C)N(CC(=O)N(CCc1ccc(OC)c(OC)c1)Cc1ccco1)S(=O)(=O)c1ccc(NC(C)=O)cc1 (stereo not drawn)	2.1	5.4
CC1CCc2c(sc3nc(C(C)C)nc(N4CCN(C(=O)c5ccc(F)cc5)CC4)c23)C1 (stereo not drawn)	-2.9	-1.6
CCn1c(C2CCN(c3nccc(N4CCC(O)C4)n3)CC2)nn(C)c1=O (stereo not drawn)	-1.9	-2.9
C[C@@]12C(=O)N(CC3CC3)c3ccccc3[C@@H]1[C@@H](C(N)=O)CN2C(=O)COc1ccccc1	-1.1	10.9
O=C(NCCn1ncc2c(=O)n(Cc3ccccc3F)cnc21)c1ccc(C(F)(F)F)cc1	-3.0	-6.9
COc1ccccc1C1CCCN1C(=O)C1CCCN(c2nc(C)c3ccc(C)cc3n2)C1 (stereo not drawn)	9.2	8.3
COCCn1c(SCC(=O)N2CCCCCC2)nc2c(c1=O)SCC2	0.3	-1.2
CCn1c(=O)c(C(=O)Nc2ccccc2)nn(-c2cccc(C)c2)c1=O	-4.9	-2.6
CCCCN(C)C(=O)c1sc(=O)n(CCOC)c1C	-10.3	-5.1
CC(C(=O)Nc1cc(Cl)c(Cl)cn1)S(C)(=O)=O (stereo not drawn)	7.1	1.3
CN(C(=O)COc1ccc(Cl)cc1)C1CCN(C(=O)OC(C)(C)C)C1 (stereo not drawn)	-3.2	-5.6

Remaining list, next part:
SMILES	NPYLR7 ag	NPYLR7 ag max-min
CCCN(CC1CC1)C(=O)CSc1nnc(Nc2ccc(CC)cc2)s1	1.0	2.2
CC(C)c1nc(SCc2cccc([N+](=O)[O-])c2)c2c(=O)n(C)c(=O)n(C)c2n1	8.0	10.8
c1ccc2c(N3CCOCC3)nc(N3CCOCC3)nc2c1	3.6&1.3	0.6&-1.5
O=C(O)C1C(=O)COC1=Nc1ccccc1 (stereo not drawn)	0.5	-0.9
CCOC(=O)NC(C(=O)NCc1nnc2ccccn12)C(C)C (stereo not drawn)	5.0	1.5
CCC(=O)N(Cc1nccn1Cc1ccccc1)C(C)C	5.9	7.7
O=C(CSc1nnc(-c2cccs2)o1)NCCOc1ccccc1	5.0	2.4
O=S(=O)(Nc1ccc2nc(-c3ccoc3)nn2c1)c1ccoc1	8.1	-4.8
CC1(C(=O)NCc2cccc(C(F)(F)F)c2)CCN1C1Cc2ccccc2C1 (stereo not drawn)	2.7	-1.5
C=C(C)Cn1c(C(=O)N2CCN(C(=O)c3ccco3)C(C)C2)cc2ccoc21 (stereo not drawn)	-1.2	7.6
Cc1cc(C)c(S(=O)(=O)Nc2ccc(N3CCCC3=O)c(Cl)c2)c(C)c1	0.7	6.4
O=C(CC1=CCCCC1)N(Cc1cccnc1)CC1CCCN(C2CCCCC2)C1 (stereo not drawn)	-3.4	-7.3
Brc1ccnc2[nH]cc(Br)c12	-5.3	-4.3
Cc1nc(CSc2nnc(OC(C)C)s2)sc1C	7.2	3.1
O=c1nc(SCc2ccccc2)c2c(n1Cc1cccnc1)CCC2	5.1	0.7
COc1ccc(-c2cc(N3CCN(CCO)CC3)n3nccc3n2)cc1	-6.8	-11.7
CC1CCCN(C(=O)COC(=O)c2ccccc2)C1 (stereo not drawn)	4.9	12.1
Cc1cccnc1C1=NOC(Cc2ccccc2)C(=O)N1CCOc1ccc(F)cc1 (stereo not drawn)	3.3	1.8
Cc1nnc(NC(=O)CSc2nc(-c3ccc(F)cc3)nc3c2c(=O)n(C)c(=O)n3C)s1	8.0	7.9
Cn1nccc1C(=O)N1CCOC(CC2CCCCC2)C1 (stereo not drawn)	9.2	4.0
CC(C)Cn1ccnc1NC(=O)c1cccc(C(F)(F)F)c1	1.7	3.1
Cc1ccc(S(=O)(=O)N(CCN2CCOCC2)Cc2nccn2Cc2ccc(Cl)cc2Cl)cc1	30.3	32.2
O=C(c1ccc(=O)n(Cc2ccccc2)n1)N(Cc1nccn1C(F)F)C1CC1	13.4	9.2
CCn1c(SCc2nnc(-c3cccs3)o2)nnc1-c1ccco1	2.4	10.2
Cc1csc2ncnc(-c3cccc4[nH]ccc34)c12	3.6	3.8
Cc1ccccc1OCC(=O)Nc1nnc(-c2ccncc2)s1	-2.9	-2.2
COc1ccc(N2C(=O)C(c3c(-c4ccccc4)[nH]n(C)c3=O)=C(N3CCOCC3)C2=O)cc1OC	5.5	8.9
CC(CC#N)N1CCC(C(=O)Nc2ccc(Br)cc2)CC1 (stereo not drawn)	9.5	11.0
Cc1ccc(C(=O)C(C)Sc2nnc(-c3ccc4c(c3)OCO4)o2)cc1C (stereo not drawn)	0.4	5.5
C=CCn1cc(CN2CCC3(CC2)CCN(C(=O)CC(C)(C)C)CC3)cn1	-0.7	-0.7
COc1ccc(OC)c(CN2CCN(CCc3ccccc3)C(CCO)C2)c1 (stereo not drawn)	15.3	1.2
CCN1CCC(CNC(=O)CCCOCc2ccccc2)CC1	-1.5	-2.3
O=C(c1cn[nH]n1)N(CCCn1ccnc1)Cc1ccncc1	1.2	1.9
CC1=C(C(=O)Nc2ccccc2)C(c2ccc(C(=O)O)cc2)n2nc(C)cc2N1 (stereo not drawn)	-3.4	-7.7
CN1CCc2c(sc(NC(=O)COc3ccccc3)c2-c2nc3ccccc3s2)C1	2.2	0.6
O=C1OC(/C=C/c2ccc(Cl)cc2)=NC/1=C/c1ccco1	-4.3	-7.9
CC(C)(C)c1ccc(N=Cc2ccccn2)cc1	21.7	15.1
COCCN1C(=O)N(Cc2ccccc2)C2(CCN(CC3=CC[C@H]4C[C@@H]3C4(C)C)CC2)C1=O	11.7	1.7
c1ccc(-c2nc(-c3ccc4c(c3)OCO4)cs2)cc1	2.1	0.0
C(=C\c1nn2c(CCc3ccccc3)nnc2s1)/c1ccccc1	1.4	2.1
C=CCN(CC(=O)N(CCc1ccc(OC)c(OC)c1)Cc1sccc1C)C(=O)c1ccc(CCCCCC)cc1	0.9	-6.2
O=C1C2ON(c3ccccc3)C(c3ccc(F)cc3)C2C(=O)N1Cc1ccccc1 (stereo not drawn)	-5.6	-12.9
CCOc1ccc(C2CC(c3ccc(C)cc3C)=NN2C(=O)CN2CCOCC2)cc1 (stereo not drawn)	-8.6	-5.3
COc1ccccc1C1CCCN1Cc1cn(CCC(N)=O)c2ccccc12 (stereo not drawn)	-6.4	-9.0
O=C(Nc1cccc2cn[nH]c12)C1CCCCN1C(=O)c1cccnc1 (stereo not drawn)	7.7	3.8
CCCSc1nnc(SC(C)C(=O)Nc2ccc(Cl)cn2)s1 (stereo not drawn)	6.7	3.8
CN1CCCC1CCNC(=O)CCc1cc2c(n1-c1ccc(F)cc1Cl)-c1ccccc1CO2 (stereo not drawn)	2.4	-2.5
CCN1CCN(C(c2ccc(SC)cc2)c2c(O)cc(C)n(Cc3ccc(OC)cc3)c2=O)CC1 (stereo not drawn)	4.5	0.9
COc1ccc(S(=O)(=O)c2cnc(SCC(=O)NCc3ccc(Cl)cc3)[nH]c2=O)cc1	-2.0	-3.0
O=S(=O)(c1cc(C(F)(F)F)ccc1Cl)N1CCC(c2nc3ccccc3[nH]2)CC1	0.2	-4.0
Cc1ccc(-n2cccn2)c(CN2CCC(CO)(CCc3ccccc3)CC2)c1	18.4	14.3
COc1ccc2cc(-c3[nH]ncc3CN3CCCC3c3nccs3)ccc2c1 (stereo not drawn)	4.7	1.1
Cc1ccccc1C1(O)CCN(C(=O)CCc2nc3ccccc3[nH]2)C1 (stereo not drawn)	-1.0	0.0

This is a subset. The share of hits here may be higher or lower than overall.
